SmPrx2 inh: inhibitors of Schistosoma mansoni peroxiredoxin 2; S. mansoni Prx2 activity coupled to TGR/GSH (TGR is thioredoxin glutathione reductase), NADPH fluorescence loss, qHTS; some inactives read as strong as hits; Potency, µM; actives 0.07% (n = 65,000); AID 448; active means full or partial inhibition curve with a strong effect at the top dose; inconclusive means weaker partial or single-point curve; inactive means no accepted curve; further: series up to 57 µM; many of its hits are not listed in these tables
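Activity is read as the drop in NADPH fluorescence (365/450 nm), recorded every 30 sec for 8 min after H2O2 addition. Prx2 is coupled to TGR-driven NADPH oxidation through glutathione, in phosphate buffer pH 7.4.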
LT uptake inh: anthrax lethal toxin internalization inhibition. Cells, anthrax lethal toxin internalization, FRET ratio (460/530). Potency, µM (top dose mostly 40 µM), for the others: at the highest dose activity change, negative = inhibition, actives largely listed as inhibitors. actives 0.67% (n = 70,000). AID 912; active = well fitted falling ratio curve with the 530 nm signal flat; inconclusive = other ratio curves, or a change in one channel alone; inactive = flat curves in the ratio and both channels; the % refers to the ratio; further: on the % scale 0 is the no-effect control and ±100 the full control effect; nearly all actives have a fitted effect of over 50% in size; tested in ME-180 cells; beta-lactamase reporter
Active calls of the source: *; ? = inconclusive; nt = no result given; & = joins results of further samples; [ ] = dose if it differs, or a comment. Potency means the concentration at half of the fitted maximal effect. Only part of the results is shown; count on the stated rates, not on these rows.

No.	compound	SmPrx2 inh	LT uptake inh
1	COc1ccc(-c2nc3c(c4c2CC(C)OC4)CN(CCC(C)C)CC3)cc1 (stereo not given)	nt	-9%[8 µM]
2	C[C@H](CC(=O)O)C(C(=O)O)C(=O)O	>57	8%[8 µM]
3	CN(C)CCN(Cc1cccs1)c1ccccn1	>57&>57	?
4	Cc1ccc(S(=O)(=O)/N=C/c2ccco2)cc1	nt	-5%
5	Cc1cc(C)n(-c2nc(NCc3cccnc3)c3c4c(sc3n2)COC(C)(C)C4)n1	>57	6%
6	COc1ccc(NC(=O)CSc2nc(NS(=O)(=O)c3ccccc3)cc(=O)[nH]2)cc1	>57	0%
7	CCC1CCc2c(sc(NC(=O)c3ccoc3C)c2C(N)=O)C1 (stereo not given)	>57	-16%
8	Nc1c(N2CCN(c3ccccc3)CC2)c2ccccc2oc1=O	nt	-18%
9	CN(CC(=O)Nc1ccccc1Cl)C(=O)COC(=O)CNC(=O)c1ccc(Br)o1	>57	-5%
10	CC(=O)c1cccc(NC(=O)c2cc(C)no2)c1	>57	-5%
11	O=C(c1cnn2c(C(F)F)cc(C3CC3)nc12)N1CCc2ccccc2C1	>57	-17%
12	O=C(COc1ccc(Cl)cc1Cl)NCc1ccco1	>57	2%
13	c1ccc(C2(c3ccccc3)OCC(Cn3cncn3)O2)cc1 (stereo not given)	>57	7%
14	C[C@H](NCCc1ccc(O)cc1)[C@@H](O)c1ccc(O)cc1	>57&>57	4%[3.58 µM]
15	C=CCn1c(N)c(-c2nc3ccccc3n2C)sc1=S	>57	0%
16	Cc1ccc(OCC(=O)Nc2cccc(C)n2)c(C)c1	>57	1%
17	Cc1cc(OCC(=O)NCCCN(C)C)cc(C)c1Br	nt	-18%
18	COc1ccc(Oc2ncc3nc(-c4ccc(F)cc4)c(=O)n(CCC#N)c3n2)cc1	>57	-28%
19	O=C(Nc1ccccc1)N1CCN(c2nc3ccccc3s2)CC1	>57	-13%
20	Cc1c(C(=O)NCc2cccnc2)oc2c1C(=O)CC(C)(C)C2	>57	2%
21	Cc1ccc(Cl)cc1N(CC(=O)NC1CCCCC1)S(C)(=O)=O	>57	-10%
22	CCC(=O)N1CCc2cc(S(=O)(=O)CCC(=O)NCc3ccc4c(c3)OCO4)ccc21	>57	9%
23	Cc1cc(C)c(NC(=O)CN2CCN3CCCC3C2)c(C)c1 (stereo not given)	>57	-3%
24	COC(=O)c1ccccc1NC(=O)C1CCCN(S(C)(=O)=O)C1 (stereo not given)	>57	9%
25	CCCNC(=O)OC[C@@H]1O[C@H](CCON=C(C)C)C=C[C@@H]1Oc1ccc(OC)cc1	nt	-12%[8 µM]
26	Cc1cc(-n2nc(C)cc2C)nc(NS(=O)(=O)c2ccccc2)n1	nt	3%
27	c1nc(NC2CC2)c2cc(-c3ccoc3)ccc2n1	>57	?
28	NC(=O)CS(=O)(=O)c1nc2ccccc2n1CC(=O)N1CCCCC1	>57	nt
29	O=C(Oc1ccc(-n2cnnn2)cc1)c1ccco1	>57	2%
30	COc1ccc(S(=O)(=O)NCCCCCC(=O)NCCCN2CCOCC2)cc1	>57	?

The closing 6 entries of the section before lead into the next.
No.	compound	SmPrx2 inh	LT uptake inh
25	CCCNC(=O)OC[C@@H]1O[C@H](CCON=C(C)C)C=C[C@@H]1Oc1ccc(OC)cc1	nt	-12%[8 µM]
26	Cc1cc(-n2nc(C)cc2C)nc(NS(=O)(=O)c2ccccc2)n1	nt	3%
27	c1nc(NC2CC2)c2cc(-c3ccoc3)ccc2n1	>57	?
28	NC(=O)CS(=O)(=O)c1nc2ccccc2n1CC(=O)N1CCCCC1	>57	nt
29	O=C(Oc1ccc(-n2cnnn2)cc1)c1ccco1	>57	2%
30	COc1ccc(S(=O)(=O)NCCCCCC(=O)NCCCN2CCOCC2)cc1	>57	?
31	COC(=O)c1ccc2c(=O)n(CCO)c(=S)[nH]c2c1	>57	-7%
32	COc1cccc(NC(=O)/C=C\c2ccc(Cl)cc2)c1	>57	-87%
33	CCC(=O)Nc1nnc(CSCc2ccccc2)s1	>57	-1%
34	CC(C)(C)c1nnc(NC(=O)CN2C(=O)C3C4C=CC(C4)C3C2=O)s1 (stereo not given)	>57	11%
35	CCN(c1cccc(C(F)(F)F)c1)S(=O)(=O)c1ccc2c(c1)CCN2C(=O)C1CC1	>57	-24%
36	COc1ccc(-c2nc(CS(=O)CC(=O)N3CCC4(CC3)OCCO4)c(C)o2)cc1 (stereo not given)	>57	?
37	COc1cccc(N(CC(=O)NCc2cccnc2)S(C)(=O)=O)c1	>57	-16%
38	CCc1ccc(N2CCCn3c2nc2c3c(=O)n(CCN3CCOCC3)c(=O)n2C)cc1	>57	-6%
39	COc1ccccc1-c1cc(C(=O)Nc2cc(C)on2)no1	>57	-10%
40	COc1ccc(C(C#N)C2(C)OCCO2)cc1OC (stereo not given)	>57	-10%
41	CCn1c2ccccc2c2nc3cc(OC)c(OC)cc3nc21	>57	-11%
42	Cc1nc2cc(-n3ccc(=O)cc3)ccc2n1-c1ccccc1	>57	10%
43	COC(=O)C1=C(C)NC(C)=C(C(=O)OC)C1c1cc2cc(C)ccc2[nH]c1=O	>57	?
44	CCCCn1c(=O)c(C(=O)Nc2ccccc2S(N)(=O)=O)c(O)c2ccccc21	>57	-50%
45	CCc1nc2ccccc2n(CCOCCn2c(=O)c(CC)nc3ccccc32)c1=O	>57	10%
46	Nn1c(COc2ccccc2)nnc1SCC(=O)O	>57	10%
47	CSc1ccc(-c2nnn(Cc3ccccn3)n2)cc1	>57	1%
48	Cc1ccccc1-n1c(SCC(=O)N2CCN(c3ccccc3)CC2)nnc1-c1ccncc1	>57	-7%
49	O=C(Cn1nc(Cc2cccnc2)c2ccccc2c1=O)N1CCN(C(=O)c2ccco2)CC1	>57	6%
50	CCOC(=O)c1ccc(NC(=O)NCc2ccncc2)cc1	>57	-2%
51	COc1ccc(OC)c(S(=O)(=O)N(C)CC(=O)Nc2cc(Cl)ccc2OC)c1	>57	-18%
52	O=C(c1ccccc1-c1ccccc1)N1CCCC1	>57	4%
53	Cn1c(N2CCC(C(N)=O)CC2)nc2c1c(=O)n(Cc1cccc(Br)c1)c(=O)n2C	>57	-9%
54	CCn1ncc(Cl)c1C(=O)Nc1cc(Cl)ccc1Cl	>57	?
55	COc1cccc(Nc2ncc3nc(CCc4ccccc4)c(=O)n(C)c3n2)c1	>57	?
56	CCN(CCO)C[C@H]1CCC[C@H]2CCCC[C@@H]21	>57	?
57	CCCCn1nnc(NC(=O)c2sc3cc(Cl)ccc3c2Cl)n1	>57	?
58	O=C(NCCC1=CCCCC1)C1CCCN(S(=O)(=O)c2cccc3cccnc23)C1 (stereo not given)	>57	-27%
59	CCOC(=O)C(Cc1ccccc1)NC(=O)Cn1nnc(-c2ccccc2)n1 (stereo not given)	>57	10%
60	CCCCOCCCNC1=NCCCCC1	>57	8%

The last 2 entries of the part above are carried over, then new ones follow:
cpd	molecule	SmPrx2 inh	LT uptake inh
59	CCOC(=O)C(Cc1ccccc1)NC(=O)Cn1nnc(-c2ccccc2)n1 (stereo not given)	>57	10%
60	CCCCOCCCNC1=NCCCCC1	>57	8%
61	COc1ccc(N=c2oc3cc(O)ccc3cc2C(=O)NCC2CCCO2)cc1 (stereo not given)	>57	?
62	CCOC(=O)c1c(NC(=O)c2cccs2)sc(C(=O)N2CCOCC2)c1C	>57	-12%
63	c1ccc(Cn2ccnc2SCc2nnc(-c3ccccc3)o2)cc1	>57	?
64	O=C(CSc1nnnn1Cc1ccccc1)NCC(=O)c1ccccc1	>57	nt
65	O=C(CSc1nc2ccccc2c2nc3ccccc3n12)NCc1ccco1	>57	2%
66	C=COCCNC(=O)C1CC(=O)N(c2ccc(C)cc2)C1 (stereo not given)	>57	-4%
67	COc1ccc(C(=O)n2nc(-c3ccc(C)cc3)nc2N)cc1OC	>57	-3%
68	O=C(CN1CCOCC1)Nc1ncc(Br)cc1Br	>57	12%
69	CO/N=C1/[C@H]2O[C@@H]2[C@@H](O)[C@H]2[C@H]1CCn1c(=O)n(-c3ccccc3)c(=O)n12	nt	-7%[8 µM]
70	COc1ccc(CNC(=O)c2cc(-c3ccco3)on2)cc1	>57	5%
71	ClC1=C(Cl)C2(Cl)C3C(Cl)C(Cl)CC3C1(Cl)C2(Cl)Cl (stereo not given)	nt	?
72	Cc1cc(C)c2c(c1)-c1c(ssc1=S)C(C)(C)N2C(=O)CSc1nncn1C	nt	?
73	O=C(NCCN1CCN(c2ccccc2F)CC1)c1cccn2c(=O)c3ccccc3nc12	>57	-13%
74	CC(C)c1ccccc1N1CC(C(=O)O)CC1=O (stereo not given)	>57	3%
75	COC(=O)Cc1c(C)c2ccc(OCC(=O)N3CCOCC3)cc2oc1=O	>57	-7%
76	CC(=O)Nc1cc(-c2nn(CC(=O)N3CCCCC3)c(=O)c3ccccc23)ccc1N1CCOCC1	>57	12%
77	CC(C)C(c1nnnn1Cc1ccccc1)N1CCc2ccccc2C1 (stereo not given)	>57	-8%
78	O=C(CCNC(=O)Cn1ccc2ccccc2c1=O)NCCCN1CCN(c2ccccc2F)CC1	>57	?
79	Cc1ccnc2nc(C(=O)N3CCN(S(=O)(=O)c4ccccc4)CC3)nn12	>57	-11%
80	O=C(C1CCC1)N1CCc2cc(S(=O)(=O)Nc3ccc4c(c3)OCO4)ccc21	>57	-16%
81	O=C(CCCC(=O)OCC1CCCO1)OCC1CCCO1 (stereo not given)	>57	20%
82	c1ccc(Cn2nnnc2CN2CCN(Cc3ccc4c(c3)OCO4)CC2)cc1	>57	-14%
83	COc1ccc(Nc2cc(C)nc3nc(C)nn23)cc1Cl	>57	8%
84	c1ccc(SCc2nc(-c3cccnc3)no2)cc1	>57	5%
85	CC1=C(C(N)=O)C(c2cccc(OCc3ccccc3)c2)n2nnnc2N1 (stereo not given)	>57	-9%
86	Cc1cccc(-n2ncc3c(N)ncnc32)c1	>57	-10%
87	CCOc1ccc(CCNC(=O)CCc2nc(-c3ccc(OC)cc3)no2)cc1OCC	>57	-7%
88	O=C(CCN1C(=O)C2C3C=CC(C3)C2C1=O)N1CCN(c2ccccc2Cl)CC1 (stereo not given)	>57	2%
89	O=C1C(Cl)=C(Nc2ccccc2O)C(=O)N1c1ccccc1	>57	9%
90	COc1ccc(Cl)cc1N1C(=O)C2CCCN2C1c1ccc(F)cc1 (stereo not given)	>57	-14%

Next entries follow.
cpd	molecule	SmPrx2 inh	LT uptake inh
91	CCCC(c1nnnn1Cc1cccs1)N1CCN(C2CCCC2)CC1 (stereo not given)	>57	?
92	COc1ccc(-n2c(=O)c(C)nc3cnc(N(C)C)nc32)cc1	>57	10µM*
93	Cc1ccc(CCNC(=O)c2nnn(-c3cccc(C)c3)c2N)cc1	>57	-2%
94	O=C1CC(c2ccco2)CC(O)=C1C=NCCN1CCNCC1 (stereo not given)	nt	-7%
95	C=C(C)[C@H]1[C@H]2OC(=O)[C@@H]1[C@]1(O)C[C@H]3O[C@]34C(=O)O[C@H]2[C@]14C	>57	1%
96	CCn1cc(Cl)c(C(=O)Nc2nc3ccccc3n2CCN2CCCCC2)n1	>57	-25%
97	CC1(C)CC(N2CN(C3CCCCC3)CC2=O)CC(C)(C)N1	nt	17%
98	COc1cc(CC(=O)Oc2ccc3c(c2)OCO3)cc(OC)c1OC	nt	2%
99	CCC(C)(C(=O)Nc1ccc2c(c1)OCCO2)N(C(C)=O)c1ccc(C(N)=O)cc1 (stereo not given)	>57	11%
100	COC(=O)c1sc(NC(=O)C2CCCO2)c(C(=O)OC)c1C (stereo not given)	>57	-4%
101	O=C(NCCNC(=O)C(F)(F)F)c1ccncc1	>57	?
102	Cc1nc([N+](=O)[O-])cn1-c1nc2ccccn2c1[N+](=O)[O-]	>57	6%[8 µM]
103	CCN1C(=O)c2cccc3c(S(=O)(=O)Nc4ccc(OC)cc4OC)ccc1c23	>57	?
104	Cc1cc(NC(=O)CSc2nc3ccsc3c(=O)n2Cc2ccccn2)n[nH]1	>57	?
105	CCc1ccc(S(=O)(=O)NCCc2cn3ccsc3n2)s1	>57	15%
106	O=C(Cn1nc(C(F)(F)F)c2c1CCC2)NCc1ccc(F)cc1	>57	-15%
107	COc1cccc(N2CCN(CC(=O)Nc3nc4c(s3)CC(C)CC4)CC2)c1 (stereo not given)	>57	2%
108	CCOc1nc(C)ccc1-c1noc(-c2ccccn2)n1	>57	-12%
109	COCCCn1c(SCC(=O)NCc2ccco2)nc2sc3c(c2c1=O)CCC3	>57	3%
110	CCOC(=O)c1sc2ncn(C(CC)C(=O)OCC)c(=O)c2c1C (stereo not given)	>57	-16%
111	O=c1c2ccccc2nc(SCc2nc(-c3ccccc3)no2)n1-c1ccc(F)cc1	>57	?
112	CCn1cc(C2Nc3ccccc3C(=O)N2O)c(C)n1 (stereo not given)	>57	3%
113	O=C(NCc1ccc2c(c1)OCO2)c1cccnc1	>57	-10%
114	COc1ccc(-c2noc(CCC(=O)NCCN(C)Cc3ccccc3)n2)cc1	>57	-6%
115	O=C(NC1CCCC1)C1CCN(S(=O)(=O)c2cccc3cccnc23)CC1	>57	10%
116	CCOC(=O)N1CCN(c2nc3ccccc3nc2C(C#N)S(=O)(=O)c2ccc(C)cc2)CC1 (stereo not given)	>57	nt
117	COc1ccc(N(CC(=O)O)N=O)cc1	>57	-6%[8 µM]
118	COC(=O)CNC(=O)C(C)NC(=O)OCc1ccccc1 (stereo not given)	nt	?
119	O=C(c1ccc(F)cc1)N(Cc1ccccc1)C1CCS(=O)(=O)C1 (stereo not given)	>57	3%

Screening data (PubChem BioAssay)
